High-throughput results as filed in PubChem BioAssay.
UCH37 inh: inhibitors of human UCH37 deubiquitinase, primary screen, biochemical, Ub-AMC cleavage, fluorescence; AID 588478, 2011; inhibition, % (concentration not given with the values); purified proteasome/UCH37; 0.33% of 330,000 active;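 active means mean of two replicates above 20%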;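 further: 0% = compound-free wells with enzyme and 100% = wells lacking proteasome; stock transfer was 100 nL into about 20 µL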
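Material: Human UCH37 enzyme supplied as purified proteasome complex | Schedule: 30 min preincubation with enzyme, 25 min cleavage at room temperature | Detection: AMC fluorescence 355/460 nm | Measure: % inhibition of Ub-AMC cleavage fluorescence | Controls: Wells without proteasome as full block, compound-free enzyme plus substrate as uninhibited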
LANA-H2A inh: blockers of LANA interaction with H2A/H2B – biochemical, FP readout, HTS, primary screen; Protein LANA1 (Human herpesvirus 8 type P (isolate GK18)), Q9QR71; cell-free LANA-H2A/H2B peptide, fluorescence polarization; inhibition, % (no concentration beside the values); 0.6% of 320,000 active; in the data active means inhibition mostly above about 10%, no sharp cut-off; inactive means mostly below about 6.7%;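 further: stock transfer was 7.5 nL into about 10 µL; 0% = median of vehicle wells and 100% = median of positive control wells; one replicate is shown; the record names a cut of 25% in any replicate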
Target sequence (Q9QR71 whole entry, looked up): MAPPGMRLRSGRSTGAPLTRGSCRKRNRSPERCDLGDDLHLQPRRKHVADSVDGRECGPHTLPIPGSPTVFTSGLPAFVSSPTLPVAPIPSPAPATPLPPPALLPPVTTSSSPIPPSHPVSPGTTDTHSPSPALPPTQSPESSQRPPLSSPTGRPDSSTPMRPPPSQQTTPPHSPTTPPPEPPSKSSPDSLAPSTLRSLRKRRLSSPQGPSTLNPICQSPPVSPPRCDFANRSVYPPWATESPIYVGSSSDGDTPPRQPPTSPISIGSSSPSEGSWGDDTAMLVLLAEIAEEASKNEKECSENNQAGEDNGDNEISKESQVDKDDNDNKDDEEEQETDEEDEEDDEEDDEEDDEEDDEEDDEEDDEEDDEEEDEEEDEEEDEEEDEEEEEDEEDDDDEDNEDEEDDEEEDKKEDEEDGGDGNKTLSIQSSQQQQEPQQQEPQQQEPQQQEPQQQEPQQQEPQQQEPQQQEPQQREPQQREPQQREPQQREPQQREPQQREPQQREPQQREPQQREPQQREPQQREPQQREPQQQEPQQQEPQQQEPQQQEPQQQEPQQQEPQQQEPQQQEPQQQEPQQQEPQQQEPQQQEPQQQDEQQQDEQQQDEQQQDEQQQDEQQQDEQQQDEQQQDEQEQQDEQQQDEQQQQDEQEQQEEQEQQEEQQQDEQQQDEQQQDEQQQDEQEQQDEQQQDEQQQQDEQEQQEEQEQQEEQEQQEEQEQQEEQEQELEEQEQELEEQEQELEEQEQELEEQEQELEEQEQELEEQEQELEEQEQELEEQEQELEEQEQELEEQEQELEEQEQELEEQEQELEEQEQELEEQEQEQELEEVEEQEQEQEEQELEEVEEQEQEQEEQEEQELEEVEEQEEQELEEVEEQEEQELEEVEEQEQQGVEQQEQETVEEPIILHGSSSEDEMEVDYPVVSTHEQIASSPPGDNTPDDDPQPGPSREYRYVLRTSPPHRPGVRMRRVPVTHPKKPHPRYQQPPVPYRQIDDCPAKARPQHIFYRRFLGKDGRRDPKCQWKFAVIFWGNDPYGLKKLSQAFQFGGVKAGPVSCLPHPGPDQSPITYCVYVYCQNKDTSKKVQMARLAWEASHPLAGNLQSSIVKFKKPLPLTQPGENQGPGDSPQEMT
T cruzi inh: inhibitors of intracellular T. cruzi growth, primary screen, luminescence, NIH3T3 host cells; T. cruzi beta-gal in NIH3T3, 90 h; 1.4% of 300,000 active; inhibition, % (concentration not given with the values);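 active means mean inhibition across valid replicates above about 55%, limit read from the data; inconclusive means mean below that limit but half or more replicates reach it; inactive means mean below it, under half of replicates reach it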;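 further: signal also drops with host cell toxicity which is not excluded here; 0% = plate median of DMSO wells and 100% = zero luminescence signal; higher percent means less beta-gal luminescence so fewer parasites; stock transfer was 50 nL into about 50 µL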
Beta cell apopt: inhibitors of cytokine-induced beta cell apoptosis, primary screen, luminescence; INS-1E cytokine-induced death, ATP luminescence, 48 h; percent of positive-control rescue, neutral wells zero; protection from apoptosis, % (test concentration not listed); 0.8% of 300,000 active;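 active means all replicates at 75% or more, or half of them and the mean; inconclusive means half reach 75% but not the mean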;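 further: 0% = cytokine-treated negative control wells and 100% = positive control rescue; higher means more ATP so stronger rescue from cytokine killing; wells of about 40 µL received 100 nL stock; the first replicate is given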
A1 inh: caspase 3/7 activation in MEF A1-2A-BIM cells, primary screen, A1 inhibitor project, cell-based, luminescence, HTS | AID 2462, 2010 | Caspase-Glo 3/7 luminescence, 3 h; percent of clofoctol response, vehicle zero | 0.066% of 330,000 active | caspase activation, % (concentration not given with the values);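 active means over half of replicate activation scores above 10%, or exactly half above 10 with the replicate mean above 10; inconclusive means replicate mean below 10 yet half the replicates above 10; inactive means over half of replicates below 10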;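 further: wells of about 30 µL received 50 nL stock; many hits fall short of the cut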
B2AR ag: beta2AR agonists driving receptor internalization, primary screen, cell-based, FAP fluorogen, flow cytometry; Beta-2 adrenergic receptor (Homo sapiens), P07550; AID 504454, 2011; response, % (concentration not given with the values); 0.43% of 340,000 active; Am2.2-beta2AR cells; reference of the scale not given here;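 active means response above a set limit, near 3 SD of response in nonfluorescent compounds, cut at about 42% in these data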;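 further: stock transfer was 100 nL into about 11 µL; a reference agonist was the positive control; negative values mostly stem from fluorescent compounds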
Calb FLC: C. albicans growth inhibition with fluconazole, primary screen, CaCi-2 strain, Alamar Blue fluorescence. C. albicans CaCi-2 (fluconazole-resistant clinical isolate) + fluconazole, 48 h. growth inhibition, % (test concentration not listed). 0.57% of 300,000 active. AID 1979, 2009;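 active means most replicates above 75%; inconclusive means exactly half above 75%; inactive means most below 75%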;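 further: all wells also contain fluconazole at 8 µg/ml as a sub-toxic cotreatment; 0% = median of DMSO wells and 100% = median of geldanamycin control wells; wells of about 8 µL received 7.5 nL stock; the first replicate is given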
RanGTP-Impb inh: inhibitors of RanGTP-importin-beta interaction, primary screen, biochemical, FRET, CFP-Ran, YFP-importin-beta, homogeneous; Ran GTPase (GTP-bound) - importin-beta complex; cell-free CFP-Ran/YFP-importin-beta FRET ratio; inhibition, % (no concentration beside the values); 1.1% of 300,000 active; AID 2216, 2009;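 active means most replicates above 15%; inconclusive means exactly half above 15%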;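 further: 0% = DMSO wells and 100% = Ran loaded with GDP instead of GTP; wells of about 40 µL received 100 nL stock; the first replicate is given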
Active calls of the source: *.

Results for COc1cccc(NC(=O)CSc2nccn(-c3ccc4c(c3)OCCO4)c2=O)c1 ?
UCH37 inh: 0.8; LANA-H2A inh: 6.3; T cruzi inh: 1.9; Beta cell apopt: -16.2; A1 inh: -0.2; B2AR ag: -7.0; Calb FLC: 36.9; RanGTP-Impb inh: -2.9

Results for OCCCNC(c1ccccc1)c1ccc(O)cc1 (stereo unspecified) ?
UCH37 inh: 1.5; LANA-H2A inh: 0.7; Beta cell apopt: -2.0; A1 inh: 0.4; B2AR ag: -6.1; Calb FLC: 8.9

Results for COc1ccc(C(=O)OCC(=O)NCc2ccco2)cc1OC ?
UCH37 inh: 1.4; LANA-H2A inh: 3.8; T cruzi inh: -3.4; Beta cell apopt: 1.4; A1 inh: 0.4; B2AR ag: -1.1; Calb FLC: 2.9; RanGTP-Impb inh: 6.5

What do the screens show for `COc1ccc(N2CCN(C(=O)c3ccc(NS(=O)(=O)c4ccc(F)cc4)cc3)CC2)cc1`?
UCH37 inh: 1.1; LANA-H2A inh: -1.2; T cruzi inh: -3.3; Beta cell apopt: 2.5; A1 inh: -3.3; B2AR ag: 12.5; Calb FLC: 2.8; RanGTP-Impb inh: -0.6

How did CCOC(=O)c1[nH]c2ccccc2c1NC(=O)CC(C)(C)C do in these assays?
UCH37 inh: -11.7; LANA-H2A inh: -0.3; T cruzi inh: 7.6; Beta cell apopt: -4.2; A1 inh: -0.7; B2AR ag: -1.7; Calb FLC: -2.1; RanGTP-Impb inh: 4.1

What do the screens show for `Cc1cc(Cl)ccc1OC(C)C(=O)NCCCn1ccnc1` (stereo unspecified)?
UCH37 inh: -0.3; LANA-H2A inh: -6.0; T cruzi inh: 4.5; Beta cell apopt: -1.3; A1 inh: 0.2; B2AR ag: -4.0; Calb FLC: -9.6; RanGTP-Impb inh: -2.4

Results for O=C(Nc1ccccc1)c1cc(N2CCOCC2)nc2ccccc12 ?
UCH37 inh: -5.4; LANA-H2A inh: -6.2; T cruzi inh: -11.1; Beta cell apopt: -0.9; A1 inh: 0.8; B2AR ag: -0.4; Calb FLC: 1.9; RanGTP-Impb inh: 4.9

Results for Nc1nnnn1CC(=O)N/N=C/c1cc([N+](=O)[O-])ccc1O ?
LANA-H2A inh: -4.5; T cruzi inh: -6.1; Beta cell apopt: 1.9; A1 inh: -0.2; B2AR ag: 14.0; Calb FLC: -4.4; RanGTP-Impb inh: 0.7

Results for N#CC1(NC(=O)CN2C(=O)NC3(CCCCCC3)C2=O)CCCCC1 ?
UCH37 inh: -2.1; LANA-H2A inh: -2.4; Beta cell apopt: -2.2; A1 inh: 0.2; B2AR ag: -1.1

Results for Cc1ccccc1Nc1cccc2nonc12 ?
UCH37 inh: -0.7; LANA-H2A inh: -1.4; T cruzi inh: 6.4; Beta cell apopt: -3.3; A1 inh: -0.3; B2AR ag: 1.1; Calb FLC: 7.5; RanGTP-Impb inh: -11.7

How did CC1CCN(S(=O)(=O)c2cc(F)ccc2CN2C(=O)c3cccnc3C2=O)CC1 do in these assays?
UCH37 inh: 4.0; LANA-H2A inh: 3.2; T cruzi inh: -19.8; Beta cell apopt: -3.3; A1 inh: 0.0; B2AR ag: 0.9; Calb FLC: -4.8; RanGTP-Impb inh: 1.2

Results for N#CCSc1ncnc2sc3c(c12)CCC3 ?
UCH37 inh: 4.9; LANA-H2A inh: 8.5; T cruzi inh: 4.6; Beta cell apopt: -3.2; A1 inh: 0.1; B2AR ag: 14.5; Calb FLC: 1.5; RanGTP-Impb inh: -2.7

What do the screens show for `CC1(C)CC2CC(C)(CN2C(=O)COC(=O)c2n[nH]c(=O)c3ccccc23)C1` (stereo unspecified)?
UCH37 inh: -2.8; LANA-H2A inh: 2.5; T cruzi inh: 8.1; Beta cell apopt: -0.2; A1 inh: -0.2; B2AR ag: 3.3; Calb FLC: 5.6; RanGTP-Impb inh: -0.2

What do the screens show for `Cc1ccc(N=C2NC(=O)/C(=C\c3ccsc3)S2)c(C)c1`?
UCH37 inh: 2.1; LANA-H2A inh: 3.2; T cruzi inh: 18.2; Beta cell apopt: -5.8; A1 inh: 0.2; B2AR ag: 6.3; Calb FLC: 26.9; RanGTP-Impb inh: 7.9

Results for CN(C)S(=O)(=O)n1cnc(-c2ccccc2)c1-c1ccccc1 ?
UCH37 inh: 1.7; LANA-H2A inh: -0.8; T cruzi inh: 11.4; Beta cell apopt: -8.4; A1 inh: -0.2; B2AR ag: 3.1; Calb FLC: 39.8; RanGTP-Impb inh: -1.8

How did COc1ccc(CN(C)CC(=O)NC(=O)NC2CCCCC2)cc1 do in these assays?
UCH37 inh: 1.6; LANA-H2A inh: -2.0; Beta cell apopt: -0.9; A1 inh: -0.8; B2AR ag: 3.2

How did O=C(NCc1ccc(F)cc1)N1CCc2ccccc2C1 do in these assays?
UCH37 inh: 3.7; LANA-H2A inh: 0.3; T cruzi inh: -8.0; Beta cell apopt: -3.5; A1 inh: 0.6; B2AR ag: 2.0; Calb FLC: 3.9; RanGTP-Impb inh: -3.5

Results for O=C(Nc1ccc(Cl)c(Cl)c1)N(CCCN1CCOCC1)Cc1cccs1 ?
UCH37 inh: 4.3; LANA-H2A inh: -3.0; T cruzi inh: -0.6; Beta cell apopt: -2.9; A1 inh: 0.7; B2AR ag: -15.0; Calb FLC: 16.2; RanGTP-Impb inh: -0.8

Results for O=C(O)c1ccc(-n2nnnc2SCc2ccccc2F)cc1 ?
UCH37 inh: 0.9; LANA-H2A inh: 1.4; T cruzi inh: -18.9; Beta cell apopt: -3.1; A1 inh: -0.2; B2AR ag: 6.0; Calb FLC: 2.6; RanGTP-Impb inh: inconclusive

How did COc1ccc(C2CC(c3ccccc3OC(=O)/C=C/c3ccccc3)=NN2C(C)=O)cc1 (stereo unspecified) do in these assays?
UCH37 inh: 1.9; LANA-H2A inh: -1.8; T cruzi inh: 1.1; Beta cell apopt: 5.2; A1 inh: -0.1; B2AR ag: 4.1; Calb FLC: -4.7; RanGTP-Impb inh: 1.2

How did COc1cc(C(c2sc3nc(C)nn3c2O)N2CC(C)OC(C)C2)cc(OC)c1OC (stereo unspecified) do in these assays?
UCH37 inh: 3.4; LANA-H2A inh: 0.0; T cruzi inh: -1.2; Beta cell apopt: -0.7; A1 inh: 0.2; B2AR ag: 12.7; Calb FLC: 4.3; RanGTP-Impb inh: -2.1

What do the screens show for `CCCCn1c(N)c(N(CCOC)C(=O)C2CCN(S(=O)(=O)c3ccc(C)cc3C)CC2)c(=O)[nH]c1=O`?
UCH37 inh: -1.5; LANA-H2A inh: -2.3; T cruzi inh: -11.1; Beta cell apopt: -7.0; A1 inh: 0.2; B2AR ag: 9.8; Calb FLC: 4.0; RanGTP-Impb inh: 7.3

How did Cc1csc(NC(=O)CSc2ccc(-c3ccccc3)nn2)n1 do in these assays?
LANA-H2A inh: -1.4; T cruzi inh: 11.8; Beta cell apopt: -2.8; A1 inh: 0.2; B2AR ag: -3.7; Calb FLC: -2.7; RanGTP-Impb inh: -2.3

How did COc1ccc(N(CC(=O)Nc2cccc(C(F)(F)F)c2)S(=O)(=O)c2c(C)[nH]c(=O)[nH]c2=O)cc1 do in these assays?
UCH37 inh: 1.7; LANA-H2A inh: -0.3; T cruzi inh: -10.4; Beta cell apopt: -0.6; A1 inh: -0.9; B2AR ag: -0.4; Calb FLC: 3.0; RanGTP-Impb inh: 4.2

What do the screens show for `Cc1ccc(NS(=O)(=O)c2ccc(N3CCN(c4ccc(O)cc4)CC3)c([N+](=O)[O-])c2)c(C)c1`?
UCH37 inh: -16.8; LANA-H2A inh: 1.3; T cruzi inh: 9.7; Beta cell apopt: 20.2; A1 inh: 0.1; B2AR ag: 29.8; Calb FLC: -0.5; RanGTP-Impb inh: -1.8

What do the screens show for `CCOC(=O)C(CC)Sc1ncnc2c1nnn2-c1ccc(F)cc1` (stereo unspecified)?
UCH37 inh: -0.2; LANA-H2A inh: 0.8; T cruzi inh: -8.4; Beta cell apopt: 4.9; A1 inh: 0.0; B2AR ag: 4.2; Calb FLC: inconclusive; RanGTP-Impb inh: 1.7

Results for COc1ccc(/C=C/c2nc3ccccc3n2Cc2ccccc2OC)cc1 ?
UCH37 inh: -223.8; LANA-H2A inh: 7.7; T cruzi inh: 55.5*; Beta cell apopt: 22.4; A1 inh: -0.2; B2AR ag: -7.6; Calb FLC: 4.3; RanGTP-Impb inh: inconclusive

What do the screens show for `CCCSc1cc(N2CCCC2)nc(-c2ccccc2)n1`?
UCH37 inh: 3.4; LANA-H2A inh: 0.4; T cruzi inh: -2.0; Beta cell apopt: -3.4; A1 inh: -0.2; B2AR ag: 26.6; Calb FLC: 5.9; RanGTP-Impb inh: -3.2

How did COC(=O)c1cc(NC(=O)c2cc(-c3ccccc3Cl)oc2C(F)(F)F)ccc1N1CCOCC1 do in these assays?
UCH37 inh: -0.7; LANA-H2A inh: -3.1; T cruzi inh: 30.8; Beta cell apopt: 11.2; A1 inh: -0.4; B2AR ag: 8.1; Calb FLC: -0.6; RanGTP-Impb inh: 2.7

Results for OC(COc1ccc2c(c1)CCC2)CN1CCN(c2cccc(Cl)c2)CC1 (stereo unspecified) ?
UCH37 inh: -0.4; LANA-H2A inh: 2.1; T cruzi inh: -7.1; Beta cell apopt: -12.7; A1 inh: -0.2; B2AR ag: -11.2; Calb FLC: -22.6; RanGTP-Impb inh: 0.4

What do the screens show for `CCN(CC)c1ccc(/C=C2\C(=N)N3N=C(CC(=O)N4CCOCC4)SC3=NC2=O)cc1`?
UCH37 inh: 21.2*; LANA-H2A inh: -1.6; T cruzi inh: 0.8; Beta cell apopt: -1.7; A1 inh: -0.8; B2AR ag: -284.4; Calb FLC: -7.3; RanGTP-Impb inh: -17.9

Results for O=C(COc1ccccc1)N(Cc1ccco1)C1CCS(=O)(=O)C1 (stereo unspecified) ?
UCH37 inh: -0.1; LANA-H2A inh: -0.5; T cruzi inh: 4.4; Beta cell apopt: 4.3; A1 inh: 0.3; B2AR ag: -6.6; Calb FLC: -7.3; RanGTP-Impb inh: 0.6

Results for Cc1ccc(C(=O)N/C(=C\c2ccccc2)C(=O)NCc2ccncc2)cc1 ?
UCH37 inh: 4.3; LANA-H2A inh: 5.2; T cruzi inh: 0.6; Beta cell apopt: -0.3; A1 inh: -0.3; B2AR ag: 20.9; Calb FLC: -1.6; RanGTP-Impb inh: 2.7

Results for COc1ccc(OC)c(NC(=O)NNC(=O)CCCOc2ccc(Cl)cc2C)c1 ?
UCH37 inh: 1.9; LANA-H2A inh: 0.1; T cruzi inh: 5.8; Beta cell apopt: 0.3; A1 inh: 1.4; B2AR ag: -9.4; Calb FLC: 2.8; RanGTP-Impb inh: -2.6
